Screens as filed in PubChem BioAssay.
Mtb hypoxia inh – PubChem AID 1159583 | M. tuberculosis hypoxia-regulated fluorescent reporter, fluorescence | fluorescence inhibition, % (test concentration not listed) | 300,000 compounds, 0.1% hits;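 active means 35 to 45% if threefold the growth effect, above 45% if 1.5-fold the growth effect; inactive means the rest, general growth blockers included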;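 further: wells of about 50 µL received 100 nL stock; 0% = vehicle wells and 100% = reference inhibitor wells; whole bacteria with a GFP reporter of the hypoxia response; strong numbers were not always called active; many hits fall short of the cut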
PrP 5UTR inh – inhibition of PrP 5' UTR reporter expression | cell-based PrP 5' UTR mRNA reporter, plate reader | inhibition, % (concentration not given with the values) | 340,000 compounds, 0.35% hits;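 active means every replicate at 50% or more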;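 further: 0 = median of the neutral control wells; tested in H4 reporter cells; numbers are from one replicate; inactives centre near -14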
RN4220 kill – growth inhibition of S. aureus RN4220, primary screen, OD600. 16 h. inhibition, % (no concentration beside the values). 330,000 compounds, 0.33% hits. AID 1259311, 2017;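 active means z-score of -3 or lower and OD600 up to 0.18 on both plates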;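 further: plate controls were untreated cells for no effect and reference antibiotic for full effect; stock transfer was 100 nL into about 80 µL; one replicate is shown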
Autofluor counter – flagged as autofluorescent in microsphere protease counterscreen | 360,000 compounds, 3.1% hits | compound autofluorescence counterscreen, microsphere flow cytometry; hits give high values | fluorescence intensity (test concentration not listed) | AID 624483;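 active means at least 3 SD above the mean of all compounds, about 16000 in these data; inconclusive means too few beads counted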;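 further: 100 nL of 1 mM stock went into each well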
BJeLR viability – MLPCN primary cell-based screen for lethality selective to Ras in HRASV12 cells | inhibition, % (no concentration beside the values) | 300,000 compounds, 0.17% hits | BJeLR (HRASV12) viability, CellTiter-Glo ATP luminescence, 48 h; reference of the scale not given here;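 active means replicate mean above 50%; inconclusive means above 50% but judged a plate artefact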;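 further: 50 nL library stock added to about 25 µL; numbers are from one replicate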
Sa ugtP lethal – growth inhibition of ugtP-null S. aureus, primary screen, RN4220 ugtP deletion, OD600 | 16 h; some inactives read as strong as hits | growth inhibition, % (no concentration beside the values) | 330,000 compounds, 0.54% hits;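 active means z-score under -3 and OD600 up to 0.15 on both plates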;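 further: plate controls were untreated wells for no effect and antibiotic for full effect; wells of about 80 µL received 100 nL stock; the first replicate is given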
Mtb hypoxia inh growth – also measured in Mtb hypoxia inh; calls as there; growth inhibition, %; measured here: M. tuberculosis growth (absorbance);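 0% = vehicle and 100% = reference antibiotic; read after six days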
* hit, by the source's call; ? = inconclusive; . = not tested or not shown.

Fields: Mtb hypoxia inh	Mtb hypoxia inh growth	PrP 5UTR inh	RN4220 kill	Autofluor counter	BJeLR viability	Sa ugtP lethal
> N#CC1=C(N)OC2=C(C(=O)CCC2)C1c1ccccc1 (stereo not given)
    -5.9	-4.4	-0.1	0.9	?	4.9	8.4
> COc1ccccc1NS(=O)(=O)c1ccccc1C#N
    -4.4	-16.2	-2.0	3.3	9173	-2.5	7.8
> COc1cccc(C(=O)N2CCCC(Nc3ccc(C)c(C)c3)C2)c1 (stereo not given)
    0.9	3.9	-15.9	5.2	6321	-2.4	7.7
> Fc1ccc2cc(CCOC3CCCCO3)ncc2c1 (stereo not given)
    14.0	17.0	.	6.0	.	.	4.5
> CCN(CC)C(=O)CSc1nnc2nnc3cc(C)ccc3n12
    .	.	-19.3	1.9	.	-8.1	13.1
> CCN(NC(=O)C(O)(c1ccccc1)c1ccccc1)C(=O)c1ccccc1
    6.3	7.9	-4.1	5.9	2556	-2.1	1.8
> Oc1ccc(/C=N/NC(=S)N/N=C/c2ccc(O)cc2)cc1
    .	.	-29.5	.	4440	-10.4	.
> Cc1ccc(-c2cc(C(=O)NCc3ccccn3)c3ccccc3n2)cc1C
    0.2	7.2	-31.9	0.8	4111	-9.4	-0.8
> CCCCNC(=O)c1cc(C)nc2ccccc12
    5.5	2.9	10.4	0.0	4239	-3.1	3.4
> O=C(c1ccoc1)N1CCC(CO)(CCc2ccccc2)CC1
    10.4	7.6	-0.2	12.9	4330	-26.4	5.0
> Nc1ncc([N+](=O)[O-])cc1S(=O)(=O)c1ccccc1
    13.5	6.9	.	2.1	4488	4.6	7.3
> O=C(Nc1cccc(O)c1)c1cccc(S(=O)(=O)N2CCCCCC2)c1
    10.6	-3.8	-42.3	2.2	3670	-1.8	-9.7
> Cc1ccc2c(c1)C1C(CO2)C(c2ccccc2)[C@]2(C)C(=O)N(Cc3ccccc3)CC(=O)N12 (stereo not given in full)
    10.5	3.6	.	-2.4	.	.	-8.1
> COc1cc(C=NNC(=O)CNC(=O)C(c2ccccc2)c2ccccc2)ccc1O
    -3.8	-11.7	.	1.1	.	.	10.8
> CC(C)(C)C(=O)COC(=O)CCc1nc2ccccc2[nH]c1=O
    2.1	-3.0	-12.9	3.3	3642	2.0	2.1
> O=C(COC(=O)CCC(=O)c1ccccc1)NCCc1ccccc1
    0.6	5.4	-1.8	1.7	?	5.7	3.4
> Clc1cccc(-c2cc3nc4c(c(N5CCN(c6cnccn6)CC5)n3n2)CCCC4)c1
    .	.	-35.0	-7.8	4964	.	4.4
> CCOc1ccc(CNC(=O)C2CCN(S(=O)(=O)c3ccc4c(c3)CCCC(=O)N4)CC2)cc1
    -2.4	-2.7	-1.4	2.5	5508	6.7	12.1
> COc1cc(NS(=O)(=O)c2ccc(Br)cc2)c(OC)cc1NC(=O)c1ccco1
    1.4	12.0	-11.5	6.9	8478	-0.7	-5.3
> Cc1c2cnn(CC(=O)N3CCOCC3)c(=O)c2c(C)n1Cc1ccccc1F
    2.3	2.6	-19.5	2.4	5001	7.4	-9.6
> Cc1cc(C(=O)N2CCN(c3cc(Cl)ccc3C)CC2)on1
    9.1	11.4	0.0	1.3	5830	18.8	-6.8
> Cc1cc(NC(=O)CSc2nc3cc(C(=O)NCCCOC(C)C)ccc3c(=O)n2Cc2ccco2)no1
    11.7	-11.1	-8.4	-1.2	4244	6.7	-13.8
> O=C(O)C(CO)(c1ccccc1)c1ccccc1
    24.5	15.6	4.4	7.7	3895	0.6	0.9
> COc1ccc(S(=O)(=O)Cc2ccc(C(=O)N3CCCC3)o2)cc1
    .	.	-4.1	-0.8	5960	4.1	9.4
> Nc1cc(N2CCOCC2)c(Cl)cc1[N+](=O)[O-]
    11.1	2.9	-8.9	6.5	4520	3.8	10.8
> Cc1cc(C)c(C(=O)COC(=O)c2cccnc2Cl)c(C)c1
    13.8	14.7	-61.4	6.9	3392	1.0	13.1
> COc1ccc(N=C2C(=Nc3ccc(OC)cc3)N(c3ccc(N(C)C)cc3)C(=S)N2c2ccc(OC)cc2)cc1
    -1.6	-5.8	0.8	2.2	9470	9.2	2.0
> O=C(Nc1ccc(C(F)(F)F)cc1)c1cc(-c2cccnc2)nc2ccc(Br)cc12
    -0.5	3.2	-13.3	3.3	15845	1.6	-30.8
> CC(Oc1ccc(Cl)cc1Cl)C(=O)NC(Cc1ccccc1)C(=O)O (stereo not given)
    -0.6	3.8	-21.0	13.4	4116	.	-1.0
> CCOc1ccc(-n2nnc3c(=O)n(CC(=O)N4CCCc5ccccc54)cnc32)cc1
    6.9	-1.4	5.5	-9.9	5244	-5.2	-2.3
> COc1ccc(C=NNC(=O)c2ccccc2NC(=O)c2ccco2)c(OC)c1
    -7.2	-0.7	.	-0.8	.	.	12.5
> O=C(NCC(c1ccco1)N1CCN(c2ccccc2F)CC1)C(=O)NC1CCCC1 (stereo not given)
    2.6	6.9	-11.2	2.9	5168	2.2	8.6
> O=C(Cn1cnc2c(cnn2-c2ccc(Cl)cc2)c1=O)N1CCN(c2ccccc2)CC1
    5.8	6.3	-13.1	2.1	4179	7.5	5.3
> Fc1ccccc1CNCC1CCCO1 (stereo not given)
    18.4	7.5	-30.9	-0.3	3908	-6.9	6.9
> COc1ccc(NC(=O)CN(C)C(=O)Cc2ccc3c(c2)OCCO3)cc1
    -11.8	-3.9	0.5	0.5	6481	1.0	-1.9
> CS(=O)(=O)c1ccc(Cl)c(NC(=O)CCN2C(=O)C3CC=CCC3C2=O)c1 (stereo not given)
    7.5	2.9	-19.7	3.1	3594	.	6.8
> CC1CN2c3ccc([N+](=O)[O-])cc3CC3(C(=O)N(C)C(=O)N(C)C3=O)C2C(C)O1 (stereo not given)
    7.6	5.9	13.0	3.1	3490	-2.2	6.1
> O=C(CN1CCN(Cc2ccc(Cl)cc2)CC1)NN=Cc1cccc(F)c1
    0.4	-3.0	.	2.6	.	.	8.7
> Cc1nnc(Cl)c2nn(-c3ccccc3)c(C)c12
    -0.1	-3.5	-24.7	2.4	7382	-7.8	-1.1
> Cc1ncoc1C(=O)N1CCCC(C(=O)c2ccc(-c3ccccc3)c(F)c2)C1 (stereo not given)
    11.4	-1.2	-5.4	4.2	5082	-4.4	3.7
> COc1ccc(-c2cc(C(F)(F)F)nc(SCC(=O)N3CCOCC3)n2)cc1OC
    .	.	-8.9	2.7	2644	-1.1	2.1
> CCn1c(=O)cc(SCC(=O)NCc2ccco2)c2ccccc21
    12.4	6.8	-16.3	8.4	9819	10.9	-0.5
> Cc1cccc(NC(=O)c2c(-c3ccccc3)noc2C)n1
    -4.0	5.5	-16.7	10.1	3786	-0.7	8.2
> CN1CCN(c2ccc([N+](=O)[O-])c(N)c2)CC1
    -4.5	-12.2	-11.7	-5.8	2394	-10.6	-0.3
> NC(=O)N/N=C/C=C/c1ccccc1
    .	.	-21.4	.	3754	1.9	.
> NC(=O)C1(N2CCCCC2)CCN(C(=O)c2cccn3c(=O)c4cc(Cl)ccc4nc23)CC1
    -4.6	-6.3	-4.7	3.0	14420	17.2	4.3
> Cc1nc(-c2nnc(SCC(=O)Nc3ccc(Cl)cc3)n2C)cs1
    -10.6	9.2	-12.8	-1.7	3899	-2.9	7.3
> CCN(CC)c1ccc(/C=N/N2CCN(Cc3ccc(Cl)cc3)CC2)c(O)c1
    .	.	-16.5	.	5353	3.5	.
> CCN(CC)C(=O)COc1ccc(C=NNC(=O)c2cc(-c3ccccc3OC)nc3ccccc23)cc1OC
    -8.5	-2.5	.	-1.2	.	.	0.5
> C[C@H](NC(=O)c1nc[nH]c1C(=O)NCCCCCN)C(=O)OC(C)(C)C
    .	.	-18.1	.	4043	-0.7	.
> COc1ccc(C(=O)NC2CCc3ccccc32)cc1OC1CCN(C(C)=O)CC1 (stereo not given)
    4.5	0.9	-10.6	2.7	6111	14.0	6.8
> CCN1C(=NCCN2CCOCC2)N[C@@H](c2ccccc2)C(C(=O)OC)=C1C
    -0.2	-3.2	-17.7	20.9	2914	6.0	10.5
> CCCn1c2ccccc2c2cnn(CC(=O)N3CCN(C4CCCCC4)CC3)c(=O)c21
    -1.6	-6.4	-8.6	3.5	6373	-1.1	-2.2
> CCOc1ccc(-n2c(SCC(=O)NCc3ccco3)nnc2-c2c[nH]c3ccccc23)cc1
    6.1	8.0	-1.4	-4.0	4916	-3.1	5.9
> O=C(/C=C/c1ccco1)Nc1cccc(NC(=O)/C=C/c2ccco2)n1
    .	.	-66.4	.	2227	3.7	.
> C=C(C)COc1ccc(-c2ncncc2-c2ccccc2)c(O)c1
    7.2	6.6	-20.5	-0.6	3788	2.3	38.0
> O=C(CSc1nc(NS(=O)(=O)c2ccccc2)cc(=O)[nH]1)Nc1ccccc1Cl
    -7.7	-0.8	-13.6	2.1	5201	-13.1	6.8
> Cc1noc(NS(=O)(=O)c2ccc(NC(=O)/C=C/c3ccc(C(C)C)cc3)cc2)c1C
    -6.1	12.6	-10.8	10.5	?	2.7	1.3
> COc1cccc(O)c1CN1CCC(C(=O)Nc2ccc(-c3cccc(C)c3)cc2)CC1
    6.7	15.9	-12.7	-3.4	4220	12.8	-26.4
> NC(=O)c1cc([N+](=O)[O-])c(Cl)cc1NCc1ccncc1
    5.2	8.1	-9.0	2.4	4189	.	-7.3

Reprinted from the part before: 4 compounds, then new ones.
Fields: Mtb hypoxia inh	Mtb hypoxia inh growth	PrP 5UTR inh	RN4220 kill	Autofluor counter	BJeLR viability	Sa ugtP lethal
> O=C(CSc1nc(NS(=O)(=O)c2ccccc2)cc(=O)[nH]1)Nc1ccccc1Cl
    -7.7	-0.8	-13.6	2.1	5201	-13.1	6.8
> Cc1noc(NS(=O)(=O)c2ccc(NC(=O)/C=C/c3ccc(C(C)C)cc3)cc2)c1C
    -6.1	12.6	-10.8	10.5	?	2.7	1.3
> COc1cccc(O)c1CN1CCC(C(=O)Nc2ccc(-c3cccc(C)c3)cc2)CC1
    6.7	15.9	-12.7	-3.4	4220	12.8	-26.4
> NC(=O)c1cc([N+](=O)[O-])c(Cl)cc1NCc1ccncc1
    5.2	8.1	-9.0	2.4	4189	.	-7.3
> O=C(CSCC(=O)N1CCCc2ccccc21)Nc1nc(-c2ccccc2)cs1
    -5.8	8.5	-22.7	-0.2	5729	2.8	-14.2
> Cc1nc2ncccn2c1-c1csc(Nc2ccccc2)n1
    7.4	12.0	0.7	7.9	2512	11.5	-7.6
> CCOC(=O)c1ccc(S(=O)(=O)NNC(=O)COc2ccccc2C)cc1
    5.6	1.7	-1.8	6.8	4172	8.1	5.5
> Cc1cc(NC(=O)CSc2nnc(-c3cccnc3)n2C)no1
    4.8	-1.7	-7.6	0.9	21792*	-1.8	-2.0
> Nc1c(/C=C2/C=CC(=O)C(O)=C2)c(=O)nc2sc(CC(=O)N3CCCC3)nn12
    5.1	-3.6	-13.7	22.9	.	-9.6	1.5
> CCOC(=O)N1CCN(C(=O)c2oc3ccc(S(=O)(=O)N4CCOCC4)cc3c2C)CC1
    10.9	8.9	-12.2	6.9	3815	-5.0	-5.1
> O=C(CCC(=O)c1cccs1)Nc1ccc(N2CCCCC2)cc1
    3.7	2.0	-4.9	4.7	3128	-4.2	4.3
> CCCCCCCc1nc2nc(C)c(Br)c(=O)n2[nH]1
    10.8	8.5	-15.2	13.3	4661	0.7	14.6
> COc1ccc(C=Nc2c(-c3ccco3)nc3ccccn23)cc1OC
    6.9	1.2	.	1.1	.	.	-1.9

2 compounds picked at random from the list so far, as already listed:
Fields: Mtb hypoxia inh	Mtb hypoxia inh growth	PrP 5UTR inh	RN4220 kill	Autofluor counter	BJeLR viability	Sa ugtP lethal
> Nc1c(/C=C2/C=CC(=O)C(O)=C2)c(=O)nc2sc(CC(=O)N3CCCC3)nn12
    5.1	-3.6	-13.7	22.9	.	-9.6	1.5
> COc1ccc(C=Nc2c(-c3ccco3)nc3ccccn23)cc1OC
    6.9	1.2	.	1.1	.	.	-1.9

In the list so far, these contain a COOH group.
Fields: Mtb hypoxia inh	Mtb hypoxia inh growth	PrP 5UTR inh	RN4220 kill	Autofluor counter	BJeLR viability	Sa ugtP lethal
> O=C(O)C(CO)(c1ccccc1)c1ccccc1
    24.5	15.6	4.4	7.7	3895	0.6	0.9
> CC(Oc1ccc(Cl)cc1Cl)C(=O)NC(Cc1ccccc1)C(=O)O (stereo not given)
    -0.6	3.8	-21.0	13.4	4116	.	-1.0
